Compound activity deposited in PubChem BioAssay by several laboratories.
Vif TR-FRET = HIV-1 Vif–A3G interaction blockers – biochemical, TR-FRET, GST-Vif 1-94, biotin-A3G peptide, dose response retest, primary screen (AID 1117319); TR-FRET GST-Vif / biotin-A3G peptide binding; higher % means a stronger effect; test concentration not given here; strong numbers were not always called active; one-dose inhibition, %; IC50 in µM for titrated hits; actives 0.57% (n = 260,000);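 active = above the screen mean plus three standard deviations and confirmed in dose response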;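 also: Vif residues 1-94 fused to GST binding biotinylated APOBEC3G peptide 110-148; 0% = full assay without inhibitor and 100% = GST in place of GST-Vif; retest series ran down from 100 µM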
MLL AF4-AF9 inh = blocks AF4 peptide binding to human AF9; P42568; AlphaScreen, biotin-AF4 peptide binding to FLAG-AF9; inhibition, % at 10 µM; actives 0.47% (n = 350,000);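 active = every replicate reaching a set inhibition limit, whatever the replicate mean, cut at about 25% in these data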;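 also: 0% = plate neutral control median and 100% = total signal loss; the record names both 10 and 1 µM as test concentration; the first replicate is given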
Target sequence (P42568 whole entry, looked up): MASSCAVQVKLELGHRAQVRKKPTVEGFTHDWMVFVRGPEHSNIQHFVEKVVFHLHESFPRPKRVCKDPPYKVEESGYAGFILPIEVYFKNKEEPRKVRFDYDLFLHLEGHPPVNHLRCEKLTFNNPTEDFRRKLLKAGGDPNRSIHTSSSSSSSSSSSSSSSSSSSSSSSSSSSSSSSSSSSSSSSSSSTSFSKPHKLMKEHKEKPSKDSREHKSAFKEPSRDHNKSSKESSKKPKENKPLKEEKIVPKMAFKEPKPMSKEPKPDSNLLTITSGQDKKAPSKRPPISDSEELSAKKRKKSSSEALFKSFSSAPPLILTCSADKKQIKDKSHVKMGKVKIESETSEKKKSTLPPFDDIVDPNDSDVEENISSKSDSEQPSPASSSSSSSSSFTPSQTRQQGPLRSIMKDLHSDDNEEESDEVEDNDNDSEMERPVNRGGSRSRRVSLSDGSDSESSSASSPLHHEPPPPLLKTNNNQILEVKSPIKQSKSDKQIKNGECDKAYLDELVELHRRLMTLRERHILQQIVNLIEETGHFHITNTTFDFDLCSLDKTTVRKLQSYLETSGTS
Ecoli rRNA inh = selective bacterial rRNA inhibition in E. coli; GFP signal change (wild-type ribosome), % (no concentration beside the values); E. coli WT GFP vs humanized-ribosome RFP mutants, fluorescence, 24 h; active compounds read low; DMSO median 0, no signal -100; actives 1.6% (n = 350,000);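 active = significant combined selectivity score with lowered wild-type GFP, culture density cut under 30%, mutant RFP and density less affected; inactive = any of these conditions unmet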; also: one replicate is shown; some compounds called inactive have numbers as strong as hits
Ecoli rRNA inh OD600 = recorded beside Ecoli rRNA inh, whose call it bears; OD600 change, %; measured here: OD600 growth;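 optical density of the mix in the first replicate; 0 = DMSO median and -100 = no signal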
Ecoli rRNA inh RFP = second read-out of Ecoli rRNA inh, no call of its own (marks repeat the call); RFP signal change, %; measured here: RFP humanized mutant strains;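 first replicate; 0 = DMSO median and -100 = no signal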
An asterisk follows results filed as active; & = joins results of further samples.

Results follow in this order: Ecoli rRNA inh OD600	Ecoli rRNA inh RFP	Ecoli rRNA inh	Vif TR-FRET	MLL AF4-AF9 inh
- CN(C)c1ccc(C=C2SC(=S)N(Cc3ccco3)C2=O)cc1
→ 10	22	18	-10%	-5.9
- CNC(=O)C[C@H]1C(=O)N(CCc2ccccc2)C[C@@H]1Cc1ccccc1
→ -7	0.4	-10	-3%	-4.3
- CC(=Cc1ccccc1)C(=O)c1ccccc1
→ -12	-2.7	-3	3%	1.1
- CC1=C(C(=O)N2CCOCC2)CC(CC(=O)NCCN2CCOCC2)C(=O)N1Cc1ccccc1 (configuration not stated)
→ -1	-3.7	-2	-6%	0.9
- Nc1cc(=O)[nH]c2ncnn12
→ 13	0.1	2	-8%	-1.3
- C[C@H]1COC(=O)CCC/C=C\C[C@H](CC(=O)N(CCO)Cc2ccccc2)C(=O)N1
→ 8	-1.4	10	-5%	-2.1
- CCOc1ccc(CN(C)C(=O)CCc2ccc(S(=O)(=O)N3CCCCCC3)cc2)cc1
→ -46	-4.2	-34	-6%	-18
- CC1CCCN(S(=O)(=O)c2ccc3[nH]c(=O)cc(C(=O)NCCCN4CCCCCC4)c3c2)C1 (configuration not stated)
→ 21	9.9	-1	-3%	8.7
- O=C(OCC1CCNCC1)c1ccc(F)cc1
→ -24	-1.5	-18	3%	-0.4
- N#Cc1ccc(CN2CCN(C(=O)CN3C(=O)NC4(CCCC4)C3=O)CC2)cc1
→ 3	-0.7	6	1%	-1.6

6 entries from above, set out differently:
Molecule | Ecoli rRNA inh OD600 | Ecoli rRNA inh RFP | Ecoli rRNA inh | Vif TR-FRET | MLL AF4-AF9 inh
CC1=C(C(=O)N2CCOCC2)CC(CC(=O)NCCN2CCOCC2)C(=O)N1Cc1ccccc1 (configuration not stated) | -1 | -3.7 | -2 | -6% | 0.9
Nc1cc(=O)[nH]c2ncnn12 | 13 | 0.1 | 2 | -8% | -1.3
C[C@H]1COC(=O)CCC/C=C\C[C@H](CC(=O)N(CCO)Cc2ccccc2)C(=O)N1 | 8 | -1.4 | 10 | -5% | -2.1
CCOc1ccc(CN(C)C(=O)CCc2ccc(S(=O)(=O)N3CCCCCC3)cc2)cc1 | -46 | -4.2 | -34 | -6% | -18
CC1CCCN(S(=O)(=O)c2ccc3[nH]c(=O)cc(C(=O)NCCCN4CCCCCC4)c3c2)C1 (configuration not stated) | 21 | 9.9 | -1 | -3% | 8.7
O=C(OCC1CCNCC1)c1ccc(F)cc1 | -24 | -1.5 | -18 | 3% | -0.4

Entries of single compounds, looked up by structure. Order of values: Ecoli rRNA inh OD600	Ecoli rRNA inh RFP	Ecoli rRNA inh	Vif TR-FRET	MLL AF4-AF9 inh
Entry for `CC(=Cc1ccccc1)C(=O)c1ccccc1` = -12	-2.7	-3	3%	1.1
Entry for `N#Cc1ccc(CN2CCN(C(=O)CN3C(=O)NC4(CCCC4)C3=O)CC2)cc1` = 3	-0.7	6	1%	-1.6

(list continues)
Results follow in this order: Ecoli rRNA inh OD600	Ecoli rRNA inh RFP	Ecoli rRNA inh	Vif TR-FRET	MLL AF4-AF9 inh
- CCOC(=O)C1CC(c2ccccc2)=NN1c1ccccc1 (configuration not stated)
→ -4	-8.1	2	-2%	-4.5
- Cc1ccc(S(=O)(=O)N2CCN(CC(=O)NCC3(N4CCOCC4)CCCCC3)CC2)cc1
→ -8	0.5	4	0%	-1.3
- CCOc1ccc(OCCC(=O)Nc2cccc(S(=O)(=O)N3CCCC3)c2)cc1
→ -18	-1.2	-21	-4%	0.2
- C[C@H](CO)N1C[C@H](C)[C@@H](CN(C)S(=O)(=O)c2cccc(C#N)c2)OCc2cnnn2CCCC1=O
→ 15&0	-3.3&1.4	8&-1	0%	-3.4&-2.3
- CCc1nnc(NC(=O)CSc2nc(-c3ccc(F)cc3)cc(-c3ccccc3)c2C#N)s1
→ 4	0.6	0	3%	-1.3
- Cc1ccc(NC(=O)CN(C)C(=O)Cc2coc3cc(C)c(C)cc23)cc1
→ -9.7*	5.8*	-23*	10%	0.7
- CN(C)/C(=C\C(=O)c1ccccc1)C(=O)c1ccccc1
→ -2	2.2	4	-5%	4.8
- O=S1(=O)CC(c2ccccc2)=NN=C(c2ccccc2)C1
→ 10	1.6	8	5%	-40
- O=C(c1ccoc1)N1CCN(c2cc(-c3ccccc3)nc3cc(-c4ccc(Br)cc4)nn23)CC1
→ 17	7.3	3	0%	-2.4
- Cc1cc(C)c(C(=O)Nc2ccc(S(=O)(=O)Nc3onc(C)c3C)cc2)c(C)c1
→ 4	-1.3	-1	1%	-3.0
- CC(C)(C)NC(=O)C[C@H]1C[C@H](C(=O)N2CCOCC2)[C@@]2(C)c3[nH]c4ccc(Cl)cc4c3CCN2C1=O
→ -13	5.3	-9	-4%	1.7
- C=CCN1c2ccccc2C(=O)C(C)S1(=O)=O (configuration not stated)
→ 9	1.6	7	6%	-7.9
- O=[N+]([O-])c1ccc(NN=C(C2CC2)C2CC2)c([N+](=O)[O-])c1
→ -13*	-1.4*	-21*	-1%	-2.6
- Cc1ccc(S(=O)(=O)N2C[C@@H]3CCCC[C@@H]3[C@@H](C)[C@H]2c2cn(Cc3ccccc3)c3ncccc23)cc1
→ 7	0.0	9	11%	1.2
- Nc1ncnc2c1ncn2[C@@H]1O[C@H](CNCc2cccc(C#Cc3ccccc3)c2)[C@@H](O)[C@H]1O
→ -4	-1.3	-6	-6%	5.6
- Cc1cccc(C=CC(=O)c2ccc(Cl)cc2)c1
→ -12	-1.0	-4	-6%	1.1
- O=C(O)c1cc(S(=O)(=O)Nc2cccc(S(=O)(=O)N3CCCC3)c2)ccc1Cl
→ -4	0.2	-1	4%	0.4
- C/C(=N/Nc1ccc(C(=O)O)cc1)c1ccc2c(c1)Nc1ccccc1S2
→ -12	-0.5	-17	11%	14
- CCOC(=O)CCCCCC(=O)Nc1ccc2c(c1)C(=O)N([C@H](C)CO)C[C@H](C)[C@@H](CN(C)C(=O)Nc1ccccc1)OCCCC[C@@H](C)O2
→ 4	3.3	3	11%	-4.1&1.6
- CCOc1ccccc1NC(=O)CCNC(=O)C1CCN(S(=O)(=O)c2ccccc2)CC1
→ 4	1.5	5	-1%	-0.3
- CN(CCc1ccccc1)C(=O)c1ccc(NC(=O)Cc2ccc(NC(=O)C3CCCN(C(=O)C4CC4)C3)cc2)cc1 (configuration not stated)
→ 0	1.3	3	-6%	-1.3
- Cc1cccc(S(=O)(=O)N(C)C[C@@H]2OCc3cn(nn3)CCCC(=O)N([C@H](C)CO)C[C@H]2C)c1
→ 10&-1	-3.7&0.7	3&-1	0%	-2.0&-1.6
- C[C@@H]1CN([C@H](C)CO)C(=O)CCCn2nncc2CO[C@H]1CN(C)C(=O)Nc1cccc(Oc2ccccn2)c1
→ -6	-1.0	1	-2%	1.6&3.3
- O=C(O)C1(Nc2ccc(Cl)cc2)CCCC1
→ 9	-0.8	6	-12%	2.2
- CN1CCN(C(=O)C[C@@H]2C[C@H]3c4cc(NC(=O)c5cccnc5)ccc4O[C@H]3[C@H](CO)O2)CC1
→ 16&8	1.7&0.0	4&2	7%	0.6
- CC(=O)Nc1cccc(OCc2cccc([N+](=O)[O-])c2)c1
→ -2	4.5	-15	-4%	5.8
- O=C(O)c1ccccc1-c1ccccc1C(=O)Nc1ccc2c(c1)C(O)c1ccccc1-2 (configuration not stated)
→ -10	0.3	-12	-2%	0.2
- O=C(COC(=O)Cc1ccc(Br)cc1)NCc1cccs1
→ -17	2.9	-18	-1%	0.9
- CCOc1cc(N2CCOCC2)c(OCC)cc1NC(=O)c1c(C)noc1C
→ 10	0.3	16	18%	4.1
- c1ccc(-c2nnc3oc(-c4cccs4)nn23)cc1
→ -5	-1.0	6	-8%	-2.1
- Cc1nc(N2CCN(S(=O)(=O)c3ccccc3)CC2)c2c3c(sc2n1)CC(C)CC3 (configuration not stated)
→ -4	-5.2	5	-15%	-21
- CCN(CC(=O)Nc1ccccc1C(F)(F)F)C(=O)c1ccccc1OCc1ccc(F)cc1
→ -28	1.6	-14	10%	-4.0
- Cc1ccc(SCc2c(C(=O)N/N=C/c3cccs3)nnn2-c2nonc2N)cc1
→ 6	11	-9	3%	0.0
- C#CCN(C[C@@H]1[C@@H](OC(=O)NCCCCCC)[C@@H](OC(=O)NCCCCCC)Cn2c(=O)ccc(=O)n21)S(=O)(=O)c1ccc(C)cc1
→ 9	-3.6	-1	6%	-3.5
- Cc1ccc(NC(=O)c2sc3nc(N4CCOCC4)c4c(c3c2N)CCCC4)cc1
→ 1	-1.1	0	2%	-1.2
- COc1ccc(C(=O)Cn2c(NCCCO)nc3ccccc32)cc1
→ 9	-0.9	6	3%	-0.9
- O=C(NNc1ccccc1)OCc1ccccc1
→ 3	-2.4	1	-2%	10.0
- Nc1ccn(C2OC(COP(=O)(O)O)C(O)C2O)c(=O)n1 (configuration not stated)
→ 9	-2.9	3	3%	-2.3
- Cc1nc2nc(C(F)(F)F)[nH]c2nc1C
→ -1	-1.8	-2	0%	-2.6
- CSc1ccc(/C=N/NC(=O)c2ccc3nc[nH]c3c2)cc1
→ 0	0.2	-6	-4%	0.1

A few values from the list.
In Ecoli rRNA inh OD600, `COc1ccc(C(=O)Cn2c(NCCCO)nc3ccccc32)cc1` has 9
In Ecoli rRNA inh, `CCN(CC(=O)Nc1ccccc1C(F)(F)F)C(=O)c1ccccc1OCc1ccc(F)cc1` has -14
In MLL AF4-AF9 inh, `Nc1ccn(C2OC(COP(=O)(O)O)C(O)C2O)c(=O)n1` (configuration not stated) has -2.3

In a second layout: results already given.
SMILES	Ecoli rRNA inh OD600	Ecoli rRNA inh RFP	Ecoli rRNA inh	Vif TR-FRET	MLL AF4-AF9 inh
Nc1ccn(C2OC(COP(=O)(O)O)C(O)C2O)c(=O)n1 (configuration not stated)	9	-2.9	3	3%	-2.3
Cc1nc2nc(C(F)(F)F)[nH]c2nc1C	-1	-1.8	-2	0%	-2.6

Remaining list, next part.
Results follow in this order: Ecoli rRNA inh OD600	Ecoli rRNA inh RFP	Ecoli rRNA inh	Vif TR-FRET	MLL AF4-AF9 inh
- CC(C)Oc1ccc(S(=O)(=O)N2CCOCC2)cc1NC(=O)CSc1nnc(C2CC2)n1C
→ 29	2.3	14	3%	-1.1
- CC(=NNS(=O)(=O)c1ccc([N+](=O)[O-])cc1)c1ccc(C)cc1
→ 14	-2.4	-2	-5%	-2.2
- CC(Sc1n[nH]c(=O)n1Cc1ccccc1)C(=O)NCC1CCCO1 (configuration not stated)
→ -2	-1.2	-1	-1%	-4.5
- CCCCn1c(=S)[nH]c2c(=O)n(C)c(=O)n(C)c21
→ 1	-0.7	-4	-3%	1.3
- COc1ccc(CNC(=O)N2[C@H]3CC[C@@H]2C=C(c2ccc(F)cc2OCc2ccccc2)C3)cc1OC
→ 7	-4.4	5	4%	0.1
- CCOC(=O)c1cc2c(c(CCO)n1)[C@H](CCO)N(S(=O)(=O)C(C)(C)C)C2
→ 13	-2.1	6	48%	0.7
- COc1ccccc1S(=O)(=O)N(C)C[C@H]1OCc2cnnn2CCCC(=O)N([C@@H](C)CO)C[C@H]1C
→ 8&3	-1.9&2.8	4&-3	3%	1.1&-2.3
- Cc1ccccc1NC(=O)Cc1nc(COC(=O)C(C)(C)Oc2ccc(Cl)cc2)cs1
→ -20	-2.8	-2	-12%	-0.8
- C[C@@H]1CN([C@@H](C)CO)C(=O)CCCn2nncc2CO[C@H]1CN(C)Cc1ccccc1C(F)(F)F
→ -18&-14	-1.4&-1.9	-13&-11	-1%	-0.6&1.8
- CCOC(=O)C1CCN(CC(O)COc2ccc(S(=O)(=O)N3CCCC3)cc2[N+](=O)[O-])CC1 (configuration not stated)
→ 12	-3.2	1	1%	0.1
- NC(=O)C1(N2CCCC2)CCN(Cc2ccccc2)CC1
→ 10	-0.5	3	-2%	-0.6
- O=C1CN(S(=O)(=O)c2cccc(Cl)c2Cl)CCN1
→ 8	0.1	8	-4%	3.0
- CC(Cc1ccccc1)N1CCCC1=O (configuration not stated)
→ 15	-0.8	7	2%	-1.6
- CC(=O)NC(CC(=O)Nc1ccc(S(=O)(=O)Nc2nccs2)cc1)c1ccccc1 (configuration not stated)
→ 6	2.0	6	2%	-1.3

The list is partial; count on the stated rates, not on these rows.
